# Compound activity (PubChem BioAssay)
# Rango release inh – inhibition of RanGTP-driven Rango-importin beta dissociation; Potency, µM (top dose mostly 46.1 µM), inactives show at the top dose activity change, negative = inhibition; O95149+P62826; Biochemical FRET Rango-importin beta, RanGTP-induced dissociation; hit rate 0.071% among 340,000; active means falling FRET ratio curve, often poorly fitted, with flat reads before Ran was added; inconclusive means other falling curves, or compound fluorescence or quenching; inactive means flat or rising ratio curve;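 also: potency is read from the fitted curve at half-maximal effect; % of control where 0% means no effect; nearly all actives have a fitted effect of over 45% in size; -100% = wells without RanGTP and RCC1; the record marks most hits as doubtful in a second field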
#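 Rango/importin beta premix (0.1/0.25 uM final), PBS + 1 mM DTT + 0.02% Tween-20 + 0.1% BSA; cpd 5 min RT; FRET pre-read; + RanGTP-RCC1 (0.6 uM Ran, 2 mM GTP, 0.2 uM RCC1); 45 min RT; FRET post-read, ex 430, em 486/530 nm.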
# Rango complex inh – inhibitors of Rango-importin beta complex formation | hit rate 0.031% among 340,000 | AID 540263 | Rango CFP/YFP FRET sensor + importin beta, 45 min | Potency, µM (series often up to 92.2 µM), without a hit: at the top dose inhibition of complex formation; active = rising FRET ratio curve, often small or poorly fitted; inconclusive = mostly compound fluorescence or quenching in the first reads; inactive = flat curves in all reads;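 also: potency is read from the fitted curve at half-maximal effect; 0% = DMSO wells and 100% = buffer wells lacking importin beta; nearly all actives have a fitted effect of over 15% in size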
#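 FRET biosensor (snurportin 1 IBB flanked by EYFP and cerulean), 50 nM, with compound 5 min, then 0.125 microM importin beta in PBS, 1 mM DTT, 0.02% Tween-20, 0.1% BSA. CFP/YFP ratio read after 45 min at room temperature; pre-read flags interference.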
# GLA inh pH 4.5 – blocks human alpha-galactosidase A at pH 4.5; P06280; purified enzyme, 4-MU-alpha-Gal fluorescence, pH 4.5; activity change, negative = inhibition, % at 105 µM; 230,000 tested, under 10 active; AID 1467; inconclusive = small, poorly fitted or top-dose-only inhibition, or a rising curve; inactive = flat fitted curve, though single readings scatter; no compound was filed as active;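 also: 0% = full activity with enzyme and -100% = basal without enzyme; dose as in the result columns while the protocol names 77 µM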
# Target sequence (P06280 whole entry, looked up): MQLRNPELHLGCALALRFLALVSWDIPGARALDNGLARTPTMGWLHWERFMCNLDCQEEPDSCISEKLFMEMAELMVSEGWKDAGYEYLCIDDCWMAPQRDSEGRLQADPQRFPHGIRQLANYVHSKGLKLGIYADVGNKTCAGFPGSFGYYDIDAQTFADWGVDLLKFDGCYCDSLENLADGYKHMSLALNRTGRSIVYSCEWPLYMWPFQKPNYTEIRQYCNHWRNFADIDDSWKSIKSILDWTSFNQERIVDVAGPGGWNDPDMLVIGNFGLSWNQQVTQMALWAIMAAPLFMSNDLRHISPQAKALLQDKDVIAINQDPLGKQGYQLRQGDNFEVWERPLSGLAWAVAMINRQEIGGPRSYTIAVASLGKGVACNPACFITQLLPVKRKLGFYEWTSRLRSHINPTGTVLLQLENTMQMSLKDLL
# miR-21 reporter – raises the signal of a miR-21 reporter; AID 2288; Potency, µM (highest dose often 38.3 µM), for inactives: at the highest dose reporter change, positive = more light; HeLa miR-21 FLuc reporter, luciferase, 48 h; 340,000 tested, under 10 active; active = well fitted rising curve with a large enough effect; inconclusive = small, poorly fitted or top-dose-only effect; inactive = no such curve, though single readings can be large or run the other way;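 also: % of control where 0% means no effect; miR-21 action dims this reporter so a rising signal means less miR-21 action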
#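 Luminescence from a firefly luciferase reporter carrying a miR-21 binding site downstream, stably expressed under a CMV promoter in HeLa cells that make miR-21 endogenously, reports miRNA modulation after 48 h compound exposure up to approximately 40uM final.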
# Starred values were filed as active, the others as inactive; ? = inconclusive; . = no result given. This is a subset, so the mix of outcomes need not match the whole.
no.	Structure	GLA inh pH 4.5	Rango complex inh	Rango release inh	miR-21 reporter
1	c1coc(CNC2C3CC4CC(C3)CC2C4)c1 (centres undefined)	10	7.3%	-6%	-1%
2	O=C(NCc1ccc2c(c1)OCO2)NC1CCCCC1	-9	3.9%	12%	-14%
3	CC(N=C1NS(=O)(=O)c2ccccc21)C(=O)NCCCc1ccccc1 (centres undefined)	2	-2.8%	-3%	-4%
4	CCS(=O)(=O)Nc1cccc(C2=NN(S(=O)(=O)c3ccc(C)cc3)C(c3cccs3)C2)c1 (centres undefined)	6	?	-12%	1%
5	Cc1c(Cl)cccc1NC(=O)C1Cc2ccccc2CN1C(=O)c1ccccc1 (centres undefined)	-2	-0.4%	19%	1%
6	Cc1cccc(OCC(=O)Nc2sc3c(c2C#N)CCC3)c1	3	-0.8%	-6%	-59%
7	O=C(COc1cccc2ccccc12)N1CCN(c2ccccc2)CC1	-24	0.0%	18%	-8%
8	Cc1nnc(NC(=O)C2CCCN(c3ncccn3)C2)s1 (centres undefined)	-7	0.3%	-11%	1%
9	O=C(O)C1C2CCC(O2)C1C(=O)NCc1ccncc1 (centres undefined)	-11	-2.8%	-9%	1%
10	CC(=O)c1ccc(NC(=O)CSc2nnc(Cn3c(=O)sc4ccccc43)n2C)cc1	4	-0.6%	8%	-1%
11	COc1cc2ccccc2ccc1=NO	.	?	-8%	.
12	O=C(O)c1cccc(NC(=O)c2cn(-c3ccccc3)nc2-c2ccc(F)cc2)c1	.	-4.2%	3%	-27%
13	N#Cc1ccc(COn2nnc3ccccc32)cc1	6	-3.8%	-2%	-48%
14	Cc1ccc(Nc2nc3c([nH]2)c(=O)n(C)c(=O)n3C)cc1	-5	-0.2%	-4%	-1%
15	COc1ccccc1CC(=O)N(CCC1=CCCCC1)c1c(N)n(Cc2ccccc2)c(=O)[nH]c1=O	.	-0.5%	-1%	.
16	CC(C)Nc1ccc(Cl)cc1[N+](=O)[O-]	-17	.	.	-4%
17	CCOc1ccc(S(=O)(=O)N2CCCCC2)cc1NC(=O)Cc1ccsc1	.	5.6%	-4%	.
18	Cc1cccc(Nc2cc(=O)n(C)c(=O)[nH]2)c1	.	-0.5%	1%	0%
19	Clc1ccccc1CSc1nnc(-c2ccncc2)o1	-7	-1.0%	30%	-59%
20	COc1ccc(C(CC(=O)N2CCCC2)c2c(O)cc(OC)cc2OC)cc1 (centres undefined)	-5	-0.4%	-7%	6%
21	CCC(C)NC(=O)C1CCC(=O)N(c2cc(OC)c(OC)c(OC)c2)C1c1ccc(OC)cc1 (centres undefined)	-2	0.8%	7%	-3%
22	CCCOc1ccc(-c2nnn(CC(=O)N3CCC(C)CC3)n2)cc1	0	-0.8%	0%	-1%
23	CCOC(=O)c1c(-c2ccco2)csc1NC(=O)CSc1nnc(N)s1	8	?	3%	-13%
24	C[C@H](OC(=O)n1ccnc1)[C@@H]1O[C@@]2(C)CCC[C@@H]1O2	.	-0.1%	0%	.
25	CC(=O)c1ccc(N2CCN(C(=O)Cn3cnc(S(=O)(=O)N4CCCCC4)c3)CC2)cc1	.	-0.3%	0%	-1%

# Whole records as entered above:
# O=C(O)c1cccc(NC(=O)c2cn(-c3ccccc3)nc2-c2ccc(F)cc2)c1 is listed as GLA inh pH 4.5 = .; Rango complex inh = -4.2%; Rango release inh = 3%; miR-21 reporter = -27%
# O=C(COc1cccc2ccccc12)N1CCN(c2ccccc2)CC1 is listed as GLA inh pH 4.5 = -24; Rango complex inh = 0.0%; Rango release inh = 18%; miR-21 reporter = -8%

# More compounds
no.	Structure	GLA inh pH 4.5	Rango complex inh	Rango release inh	miR-21 reporter
26	O=C(CNCc1cccs1)Nc1cc(S(=O)(=O)N2CCCC2)ccc1Cl	18	2.3%	-4%	8%
27	COc1ccc(NC(=O)CCN2CCCC(C)C2)cc1 (centres undefined)	1	0.2%	-6%	-5%
28	CCC(C)NC(=O)CNC(=S)N(CCCN1CCOCC1)Cc1cccs1 (centres undefined)	7	4.0%	27%	-10%
29	O=C(O)c1cccc(S(=O)(=O)Nc2cccc3ccccc23)c1	.	-3.2%	19%	-6%
30	CCn1ncc(/C=C/C(=O)NCc2cnn(C)c2C)c1C	0	-6.1%	13%	-1%
31	COc1cc(OC)cc(-c2c(-c3ccc(F)cc3)c3cc(-c4cccc5[nH]ccc45)ccc3n2C)c1	.	1.5%	2%	.
32	COc1cccc(C2C(C(C)=O)=C(O)C(=O)N2CCc2c[nH]c3ccccc23)c1 (centres undefined)	-6	-4.2%	-13%	-11%
33	CNC(=O)c1ccc(OC2CSC2)cc1	10	0.3%	2%	-15%
34	CCCCCCc1ccc(N2C[C@H](CCCCC)[C@@H](CC(=O)NCc3ccccc3)C2=O)cc1	.	-1.4%	-20%	0%
35	Cc1ccc2c(Cl)c(C(=O)NCC(c3ccco3)N3CCCC3)sc2c1 (centres undefined)	.	-1.9%	3%	-4%
36	O=C(CC(=O)c1ccccc1)Nc1ccccc1	.	?	9%	.
37	Cn1cccc1C(=O)NC(=O)COC(=O)C12CC3CC(CC(O)(C3)C1)C2	1	-4.4%	-2%	-37%
38	O=C(NC(=S)NCc1ccccc1)c1cccnc1	9	-1.0%	-1%	-7%
39	CC(=O)NCCC(=O)Nc1sc2c(c1-c1nc3ccccc3[nH]1)CCCC2	-3	1.0%	2%	1%
40	Cc1coc2cc3oc(=O)ccc3cc12	.	-0.9%	-7%	-4%
41	CCC1CCCCN1C(=S)NC(=O)c1ccc([N+](=O)[O-])cc1 (centres undefined)	6	-1.4%	-1%	0%
42	CCN(CC(=O)NCc1cccs1)C(=O)c1ccccc1F	4	0.3%	-5%	-4%
43	O=C(OC(C(=O)c1c[nH]c2ccccc12)c1ccccc1)c1cnccn1 (centres undefined)	.	-0.4%	3%	-20%
44	NS(=O)(=O)c1cccc(NC(=O)CSc2n[nH]c(-c3ccccc3Br)n2)c1	.	-5.0%	8%	.
45	COc1ccc2[nH]cc(C(=O)CN3CCCC(C)C3)c2c1 (centres undefined)	11	0.0%	-4%	-14%
46	CC(C)[C@H](NS(=O)(=O)c1ccccc1)C(=O)OCC(=O)NC(=O)c1cccn1C	-6	-0.1%	-16%	-1%
47	CC(=O)Nc1sc(C)c(C)c1C(=O)OCC(=O)N(CC(C)C)c1c(N)n(Cc2ccccc2)c(=O)[nH]c1=O	.	5.4%	4%	.
48	CCOc1ccc(CN2CCN(Cc3cc4ccccc4o3)CC2CCO)cc1 (centres undefined)	.	-3.5%	12%	3%
49	O=C(Nc1c(-c2ccccc2)nc2ccccn12)c1ccccc1	.	1.8%	0%	1%
50	COc1ccc(C(C(=O)NC2CCCC2)N(CCO)C(=O)Cn2nnc(-c3ccc(C)o3)n2)cc1 (centres undefined)	.	-1.2%	?	-3%
51	CC1(C)NC(=O)N(CC(=O)Nc2ccc(-n3cnnn3)cc2)C1=O	.	1.5%	-9%	.
52	O=C(Cn1c(-c2cncs2)nc2ccccc21)NC1CCCC1	6	0.4%	-6%	-4%
53	CC#CC(=O)N1CCC(n2nccc2NC(=O)c2ccc3c(c2)OCO3)CC1	.	5.8%	9%	-26%
54	Cc1cc(Br)ccc1NC(=O)C1CSC2(C)CCC(=O)N12 (centres undefined)	.	1.1%	-4%	.
55	CC(C)C[C@@H](C(=O)NCC1CCCO1)N1C(=O)N2CCc3c([nH]c4ccccc34)[C@@]2(C)C1=O (some centres undefined)	.	-0.5%	2%	4%
56	NC(=O)C1CCN(CC(=O)Nc2ccccc2N2CCOCC2)CC1	4	0.1%	-11%	-1%
57	CC(C)[C@H](NC(=O)c1ccco1)C(=O)N(C)Cc1c(F)cccc1Cl	.	-2.4%	-21%	4%
58	C#CC(=O)N(c1ccc(OC)c(OC)c1)C(C(=O)NC1CCCC1)c1cccs1 (centres undefined)	0	0.2%	13%	20%
59	CC(=O)N1CCN(CCS(=O)(=O)c2ccc(Br)cc2)CC1	.	-1.2%	1%	.
60	CCOC(=O)C1CCN(S(=O)(=O)c2c[nH]c(=O)[nH]c2=O)CC1	.	-0.5%	-8%	.
61	Cc1cc(C)c(-c2cc(C(=O)Nc3c(C)n(C)n(-c4ccccc4)c3=O)[nH]n2)c(O)c1	-4	-0.5%	-2%	-5%
62	Cc1c(Cl)cccc1NC(=O)CCCN1C(=O)CCC1=O	7	-0.8%	2%	-2%
63	CC(=O)Nc1ccc(S(=O)(=O)N2CCN(C(=O)c3ncoc3-c3cccc(C)c3)CC2)cc1	.	-0.1%	-2%	-2%
64	COc1ccc(/C=N\NC(=O)c2ccccc2OC)cc1COc1ccccc1C	.	-4.3%	-4%	-1%
65	Cc1ccc(Cl)cc1NC(=O)NCc1cccnc1	.	0.5%	-5%	1%
66	COc1nc(-c2ccccc2)nnc1-c1ccccc1	-13	0.7%	-14%	-62%
67	CCOCC(=O)Nc1cc(Cl)c(OC)cc1OC	4	.	.	-2%
68	CCCNS(=O)(=O)c1ccc(CCC(=O)Nc2cc(Cl)ccc2Oc2ccccc2)cc1	-1	-0.3%	-12%	?
69	CCOc1cc(N2CCOCC2)c(OCC)cc1NC(=O)C1CCCC1	5	?	-1%	-18%
70	CCOc1cc(C)c(C(C)C)cc1S(=O)(=O)n1cnc(C)c1	8	0.0%	14%	22%
71	CCOc1ccc(CN2CCN(Cc3nc(C(C)C)cs3)CC2CCO)cc1 (centres undefined)	5	-0.1%	3%	1%
72	O=C1CSC(c2ccncc2)N1Cc1ccco1 (centres undefined)	4	0.1%	18%	0%
73	CC(=O)c1sc(NC(=O)Cc2c(F)cccc2Cl)nc1C	.	-1.0%	0%	-5%
74	COc1ccc(CCNC(=O)COc2nsnc2N2CCOCC2)cc1OC	-2	5.6%	-8%	-5%
75	O=c1cc(-c2ccccc2)c2c([nH]1)CCCC2	.	-1.7%	-5%	-9%

# (listing goes on)
no.	Structure	GLA inh pH 4.5	Rango complex inh	Rango release inh	miR-21 reporter
76	Cc1cccc(C)c1NC(=O)CN(C1CCCCC1)S(C)(=O)=O	.	2.1%	3%	1%
77	NC(=O)c1c(NC(=O)COC(=O)c2ccc(O)c(Cl)c2)sc2c1CCCC2	.	2.5%	-9%	.
78	CCN(CCn1cccn1)C(=O)CC1C(=O)NCCN1Cc1cc(OC)cc(OC)c1 (centres undefined)	-2	-0.5%	6%	-3%
79	CC(C)Cc1nc2ccc(N)cc2[nH]1	-6	?	18%	-13%
80	Fc1ccc(CSc2ncnc3c2ncn3C2CCCCO2)cc1 (centres undefined)	.	0.2%	4%	.
81	O=C1NC(=S)SC1=Cc1ccccc1Cl	.	0.6%	-5%	.
82	O=C(/C=C/c1ccccc1Cl)NCCCn1ccnc1	.	-0.6%	18%	-5%
83	CC(C)(C)c1ccc(/C=C2\CCn3c2nc2cc(C(=O)O)ccc2c3=O)cc1	.	1.9%	3%	-9%
84	CCc1ccc(Nc2n[n+](-c3ccccc3)c(-c3ccc(SC)cc3)s2)cc1	.	4.4%	11%	-13%
85	CCOc1[nH]n(-c2ccccc2)c(=O)c1C=Nc1ccc(F)cc1F	-6	-1.7%	56%	2%
86	CC(C)(C)[C@@H]1C=C(C(=O)NCc2ccccc2)O[C@H](OCc2ccc(CO)cc2)C1	-5	-0.1%	4%	-2%
87	COc1ccc(OC)c(N)c1	6	-3.2%	-8%	-1%
88	Cc1ccc(-c2nnc(N3CCCCCC3)c3ccccc23)cc1	.	?	12%	-5%
89	COc1ccccc1N1CCN(S(=O)(=O)CCNC(=O)CCCc2ccccc2)CC1	.	1.0%	0%	.
90	Cc1ccc(C(=O)NCCc2nc3ccccc3[nH]2)cc1[N+](=O)[O-]	-6	-2.5%	-9%	-8%
91	CCOc1ccccc1C(=O)OCC(=O)NCC1CCCO1 (centres undefined)	.	0.3%	-5%	.
92	CC(=O)c1cc(-c2ccccc2)n(CCC(=O)NC2CCC(C)CC2)c1C (centres undefined)	-2	-2.8%	7%	-6%
93	CC(NC(=O)c1cc(S(=O)(=O)N(C)C)ccc1N1CCCC1)C1CC2CCC1C2 (centres undefined)	-2	-4.6%	-19%	-10%
